Compound activity (PubChem BioAssay)
quorum sensing = Vibrio cholerae quorum sensing activators, luminescence (AID 686977); one-dose luminescence at 50 µM unless noted; EC50 in µM for titrated hits; V. cholerae quorum sensing reporter, luminescence, 6 h; higher luminescence means a stronger effect; most inactives read 0; 9,400 tested, under 10 active;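 active = light above mean plus 3 SD and confirmed in a dose series; inconclusive = above that limit without a clear retest; inactive = below it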;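 also: raw light counts without normalisation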
Active calls of the source: *; ? = inconclusive; [ ] = remark or other dose. Not all compounds are listed; rates above refer to the full screens.

Compound	quorum sensing
CCOC(=O)CCc1c(C)c2ccc(OC(C)C(=O)OCC)c(C)c2oc1=O (stereo unspecified)	40
O=c1[nH]c(=O)n(CCc2ccc(F)cc2)c(O)c1C=NCCCn1ccnc1	0
O=C(Cn1nc(Cc2cccnc2)c2ccccc2c1=O)NCC1CCCO1 (stereo unspecified)	40
N#Cc1c(/N=C/N2CCCC2)oc(-c2ccccc2)c1-c1ccccc1	40
COc1cc(C(=O)NC2CCN(Cc3nnnn3Cc3cccs3)CC2)cc(OC)c1OC	0
Cc1onc(-c2c(F)cccc2Cl)c1C(=O)NC1CCSC1=O (stereo unspecified)	40
COc1ccc(CCNC(=O)c2nnc(Cc3ccc(Cl)cc3)o2)cc1OC	?
Cc1ccc(S(=O)(=O)Cn2nnnc2C(C(C)C)N2CCN(Cc3ccco3)CC2)cc1 (stereo unspecified)	0
Cn1c(=O)c2cc(S(=O)(=O)NC(C(=O)N3CCCCCC3)c3ccccc3)ccc2n(C)c1=O (stereo unspecified)	0
CN(C)c1ccc(NC(=O)CN2C(=O)CN=C(c3ccccc3)c3cc(Cl)ccc32)cc1	960
COCCn1nnnc1C(c1cc2ccc(C)cc2[nH]c1=O)N(Cc1ccco1)Cc1cccs1 (stereo unspecified)	40
Cn1c(CO)nc2cc(N)ccc21	40
CCC1=Nc2ccccc2-c2nnc(SC)nc2O1	0
C[C@H]1C[C@@H]2[C@H]([C@@H](O)C[C@@]3(C)[C@H]2CC[C@]3(O)C(=O)CO)[C@@]2(C)C=CC(=O)C=C12	40[10 µg/mL]
CC(=O)CCc1ccc2oc(C(=O)O)c(C)c2c1	40
NC(=O)c1nc(C2CCCCC2)nc2c1[nH]c(=O)n2-c1ccc(F)cc1	0
COc1ccccc1N(CC(O)CN1C(=O)NC(C)(C)C1=O)S(=O)(=O)c1ccc(C)cc1 (stereo unspecified)	0
Cc1cc(OCC(=O)Nc2cc(-c3nn4c(C)nnc4s3)ccc2C)ccc1Cl	0
O=C1CCCN1CCCNc1ncnc2c1cnn2-c1ccc(Cl)cc1	0
CCOc1ccc(S(=O)(=O)NCCOC)cc1C	0
CCCCCn1c(=O)[nH]c2cc(C(=O)NCCN(CC)CC)ccc2c1=O	0
CCOC(=O)c1[nH]c2ccccc2c1NC(=O)CC(C)(C)C	40
CN(C)S(=O)(=O)n1cnc(-c2ccccc2)c1-c1ccccc1	?
O=C(Nc1ccc(Cl)c(Cl)c1)N(CCCN1CCOCC1)Cc1cccs1	320
COc1cc(C(c2sc3nc(C)nn3c2O)N2CC(C)OC(C)C2)cc(OC)c1OC (stereo unspecified)	0
CC(=O)OCC(=O)[C@@]12OC(C)(C)O[C@@H]1C[C@H]1[C@@H]3C[C@H](F)C4=CC(=O)C=C[C@]4(C)[C@@]3(F)[C@@H](O)C[C@@]12C	40[10 µg/mL]
O=C(COc1ccccc1)N(Cc1ccco1)C1CCS(=O)(=O)C1 (stereo unspecified)	0
CC1Cc2nc(SCC(=O)N3CCN(c4ccccc4)CC3)n(C)c(=O)c2S1 (stereo unspecified)	0
O=c1[nH]c(CN2CCc3ccccc32)nc2scc(-c3cccs3)c12	0
CC(C)(C)NC(=O)CCN1CCOCC1	160
CCOC(=O)C1CCCN(c2c(Nc3ccc(OCC)cc3)c(=O)c2=O)C1 (stereo unspecified)	40
COc1ccc(OCC(O)CNC(=O)c2ccc(Br)cc2)cc1 (stereo unspecified)	40
O=C(O)CCC(=O)Nc1ccc(-c2nnc(-c3ccco3)o2)cc1	40
O=C(Cn1ncc2c1-c1ccccc1OC2)N1CCN(c2ccccn2)CC1	0
c1cncc(C(c2nnnn2C2CCCC2)N2CCN(Cc3ccc4c(c3)OCO4)CC2)c1 (stereo unspecified)	0
N#Cc1cc(C#N)c(N2CCN(c3ccccn3)CC2)nc1N	0
Cc1ccc(N2CCN(C(=S)c3ccc(N(C)C)cc3)CC2)cc1	0
O=C(NCCN1CCN(c2ccccc2F)CC1)C1CCCN(S(=O)(=O)c2cnc[nH]2)C1 (stereo unspecified)	0
COc1ccc(-c2cc(C(=O)N3CCN(c4ccccc4)CC3)c3ccccc3n2)cc1OC	0
C=CCc1ccc(OCCn2cccc2C=O)c(OC)c1	0
COC(=O)[C@H](CC(C)C)NC(=O)N1CCN(c2cccc(C(F)(F)F)c2)CC1	0
Cn1nc(CC(=O)Nc2cccc3ncccc23)c2ccccc2c1=O	0
Cc1cccc(CSc2nncc(=O)[nH]2)c1	0
COCCc1ccc(OCC(O)CNC(C)C)cc1 (stereo unspecified)	0[10 µg/mL]
C=CCn1c(SCC(=O)Nc2cc(C)nn2-c2ccccc2)nnc1C1CCCCC1	40
O=S(=O)(c1ccc2c(c1)oc1ccccc12)N1CCOCC1	?
NC(=O)CSc1nnc(-c2ccncc2)n1-c1ccc(Cl)cc1	0
COc1cc(NS(=O)(=O)c2ccc3c(c2)n(C)c(=O)n3C)cc(OC)c1	0
Cc1ccc(N2CCN(C(=O)CCc3nc4ccccc4[nH]3)CC2)c(C)c1	0
O=c1c2cnn(-c3ccccc3)c2ncn1Cc1ccccc1F	0
COc1cccc(OC)c1C(=O)NC(C)C12CC3CC(CC(C3)C1)C2 (stereo unspecified)	0
CCc1nc(SCC(=O)NCc2ccc(F)cc2)c2c(=O)n(C)c(=O)n(C)c2n1	40
COc1cc(NC(=O)C2CCCN2S(=O)(=O)c2ccc3c(c2)CCC(=O)N3)cc(OC)c1 (stereo unspecified)	0
CCC(Sc1nc(=O)cc(N)n1CCc1ccccc1)C(=O)Nc1cc(C)on1 (stereo unspecified)	0
O=C1Nc2ccc(S(=O)(=O)N3CCCC3C(=O)O)c3cccc1c23 (stereo unspecified)	0
CCOC(=O)c1ccc(NC(=O)CSc2nnc(COc3ccccc3OC)n2C)cc1	0
CCCC(=O)NCCCc1nc2ccccc2[nH]1	40
CCc1c(C)c2nncn2[nH]c1=O	0
COCCNC(=O)COC(=O)CSCc1nc2ccccc2s1	40
CN(C)S(=O)(=O)c1ccc(C(=O)Nc2ccc(OCC(=O)N3CCOCC3)cc2)cc1	0

Of the compounds above, these have a COOH group:
Compound	quorum sensing
CC(=O)CCc1ccc2oc(C(=O)O)c(C)c2c1	40
O=C(O)CCC(=O)Nc1ccc(-c2nnc(-c3ccco3)o2)cc1	40
O=C1Nc2ccc(S(=O)(=O)N3CCCC3C(=O)O)c3cccc1c23 (stereo unspecified)	0

Additional compounds
Compound	quorum sensing
CSc1ccc2c(c1)C(N1CCN(C)CC1)Cc1ccccc1S2 (stereo unspecified)	0[10 µg/mL]
O=CN(/C=C1\Sc2ccccc2C1=O)Cc1ccccc1	40
COc1ccc(C(=O)N2CCSC2=S)cc1OC	0
CS(=O)(=O)Nc1ccc([N+](=O)[O-])cc1Oc1ccccc1	0[10 µg/mL]
Cc1cc(NC(=O)CCN2C(=O)c3ccccc3C2=O)no1	0
COC(=O)C1CCN(Cc2ccc(C)cc2)CC1	40
Cc1ccc(-c2noc(CN3CCN(c4ccccc4F)CC3)n2)cc1	0
Cc1ccc(N2Cc3ccccc3OC(C)C2=O)cc1 (stereo unspecified)	0
COc1ccc(NC(=O)c2cccc(S(=O)(=O)N3CCOCC3)c2)cn1	240
CC(C)(C)c1ccc(S(=O)(=O)NCCc2ccncc2)cc1	40
C=C1[C@@H](O)[C@]23C[C@@H]1[C@@H](O)C[C@H]2[C@@]12C4[C@@H]3C[C@@H]1[C@@](C)(CC[C@@H]2O)CN4CC	280[10 µg/mL]
CCOC(=O)Cn1c(=O)oc2cc(S(=O)(=O)N3CCC(N4CCCCC4)CC3)ccc21	40
COc1cccc(-c2nc3cc(C)ccc3o2)c1	0
Cc1c(N=Cc2c(O)n(CCc3ccccc3)c(=O)[nH]c2=O)c(=O)n(-c2ccccc2)n1C	40
Clc1ccc(-n2ncc3c(N4CCCCCC4)ncnc32)cc1	0
O=S(=O)(NCC(c1cccnc1)N1CCN(Cc2ccccc2)CC1)c1ccccc1 (stereo unspecified)	0
Cc1ccc(CCNC(=O)C2CCN(S(=O)(=O)c3ccc4c(c3)CCC(=O)N4)CC2)cc1	0
Cc1cc(-c2nnc(-c3cc4ccccc4oc3=O)o2)c(C)n1-c1ccccc1	0
c1ccc2c(c1)nc(N1CCOCC1)c1nncn12	0
O=C(Cn1c(=O)n2ncnc2c2c3c(sc21)CCCC3)c1ccccc1	40
O=C(CNC(=O)Cn1cnc2sc3c(c2c1=O)CCCC3)NCc1ccccn1	0
COC(=O)c1ccc(CSc2nnc(NC(=O)C3CCCO3)s2)cc1 (stereo unspecified)	0
CC(=O)OC(C(=O)NC1CCCCC1)c1ccccc1 (stereo unspecified)	0
Cc1ccc(S(=O)(=O)N=Nc2c(O)[nH]c3ccccc23)cc1C	0
O=C1CC(N2CCC(O)CC2)C(=O)N1c1ccc(Br)cc1 (stereo unspecified)	40
Cc1nnc(SCCCn2c(N3CCCCC3)nc3c2c(=O)[nH]c(=O)n3C)s1	0
COC(=O)c1ccccc1NC(=O)Nc1ccc2c(c1)OCO2	40
CN(C)C(CNc1nnnn1-c1ccccc1)c1ccco1 (stereo unspecified)	40
Cc1ccc(C)c2[nH]c(=O)c(CCNC(=O)CC(C)C)cc12	280
CCCCn1ccnc1C(=O)c1cccc(S(=O)(=O)N2CC(C)CC(C)C2)c1 (stereo unspecified)	0

A draw from above in order of count of non-hydrogen atoms, high to low:
Compound	quorum sensing
Cc1ccc(S(=O)(=O)Cn2nnnc2C(C(C)C)N2CCN(Cc3ccco3)CC2)cc1 (stereo unspecified)	0
CCCCn1ccnc1C(=O)c1cccc(S(=O)(=O)N2CC(C)CC(C)C2)c1 (stereo unspecified)	0
NC(=O)c1nc(C2CCCCC2)nc2c1[nH]c(=O)n2-c1ccc(F)cc1	0
COc1cccc(OC)c1C(=O)NC(C)C12CC3CC(CC(C3)C1)C2 (stereo unspecified)	0
CN(C)C(CNc1nnnn1-c1ccccc1)c1ccco1 (stereo unspecified)	40
c1ccc2c(c1)nc(N1CCOCC1)c1nncn12	0

(next part)
Compound	quorum sensing
CCOc1ccc(NC(C)=O)cc1	0[10 µg/mL]
CCN(CC)Cc1cc(Nc2ccnc3cc(Cl)ccc23)ccc1O	40[10 µg/mL]
CCSc1nc2ccccc2c(=O)n1OCC(=O)OC	0
CCn1c(SC)nnc1-c1c[nH]c2ccccc12	0
COc1cc2c(cc1NC(=O)CN(C)Cc1nc3ccccc3c(=O)[nH]1)oc1ccccc12	40
CCOC(=O)C1=C(C)OC(N)=C(C#N)C1c1c(C)nn(-c2ccccc2)c1Cl (stereo unspecified)	0
COc1c2c(cc3c1OCO3)CCN(C)C2	0[10 µg/mL]
COc1cccc2sc(Nc3nnc(-c4ccc(F)cc4)o3)nc12	0
Cc1cc(N2CCOCC2)n2ncc(-c3ccccc3)c2n1	40
O=C(Cn1c(=O)sc2ccccc21)N1CCOCC1	40
O=c1c2cc(-c3ccccc3)sc2ncn1-n1cccc1	40
COc1ccc(CCN2C(=NC(=O)CC(C)C)SC3CS(=O)(=O)CC32)cc1 (stereo unspecified)	40
CCOC(=O)C1CCN(c2c(NCCN3CCN(c4ccccc4)CC3)c(=O)c2=O)CC1	40
O=C1Nc2ncccc2OC1CCO (stereo unspecified)	40
NC(=O)c1cccc(S(=O)(=O)N2CCCCC2)c1	0
COc1ccccc1C(c1nnnn1CCc1ccccc1)N1CCN(c2ccccc2)CC1 (stereo unspecified)	0
COc1ccc(C)cc1NC(=O)c1nnn(Cc2cc(C)ccc2C)c1N	200
Fc1ccc(-c2cc(C(F)(F)F)nc(NCC3CCCO3)n2)cc1 (stereo unspecified)	0
CCN(CC)CCOC(=O)C(Cc1cccc2ccccc12)CC1CCCO1 (stereo unspecified)	0[10 µg/mL]
COCCn1c(SCC(=O)Nc2cc(C)on2)nnc1-c1c[nH]c2ccccc12	40
COC(=O)Cn1cnc2sc(C)c(S(=O)(=O)N3CCC(C)CC3)c2c1=O	0
C/C(=C\c1ccco1)C1Nc2cccc3cccc(c23)N1	0
COc1ccc(-c2nc(C(N)=O)c3[nH]c(=O)n(-c4cccc(Cl)c4)c3n2)cc1OC	160
CC(SC1=NCCS1)C(=O)Nc1nnc(-c2ccc(F)cc2)s1 (stereo unspecified)	0
Cc1ccc(NC(=O)CSC2=Nc3ccccc3C3CC=NN23)c(C)c1 (stereo unspecified)	40
CCCCN(CC)C(=O)Cn1ncc2c1-c1cc(C)ccc1OC2	0
CCOc1ccccc1C1CC(c2ccc(F)cc2)Nc2nc(N)nn21 (stereo unspecified)	0
Cc1ccc(C(=O)NCCn2cc(SCC(=O)N3CCOCC3)c3ccccc32)cc1	40
CC(O)Cc1nsc(NC(=O)c2cccs2)n1 (stereo unspecified)	0
Cc1noc(C)c1S(=O)(=O)N1CCCC(C(=O)N2CCc3ccccc3C2)C1 (stereo unspecified)	0

Some of the entries above, reformatted.
C/C(=C\c1ccco1)C1Nc2cccc3cccc(c23)N1
  quorum sensing: 0
COc1ccc(-c2nc(C(N)=O)c3[nH]c(=O)n(-c4cccc(Cl)c4)c3n2)cc1OC
  quorum sensing: 160

(continued)
Compound	quorum sensing
O=C(O)c1ccc(CSc2nnc(-c3ccco3)o2)cc1	0
CCCCCC(=O)Nc1c(-c2ccc(OC)cc2)c(=O)c2ccccc2n1C	0
CN1Cc2c(ccc3c2OCO3)[C@@H]2[C@H]1c1cc3c(cc1C[C@@H]2O)OCO3	0[10 µg/mL]
COc1ccc2c(c1OC)C(=O)O[C@@H]2[C@H]1c2c(cc3c(c2OC)OCO3)CCN1C	40[10 µg/mL]
CSc1cc(-c2ccccc2)n(Cc2ccccc2Cl)c(=O)c1C#N	?
COc1ccc(NC(=O)C2CCN(S(=O)(=O)c3c(C)noc3C)CC2)cc1Cl	40
CCOc1ccc(S(=O)(=O)N2CCN(c3ccc(C)cc3C)CC2)cc1	0
